RE007 growth inh: less growth of the S. pombe RE007 Vpr strain; S. pombe RE007 Vpr strain, BacTiter-Glo ATP luminescence, 24 h; control for the full effect not named in the record; Potency, µM (doses to about 92.2 µM), for the others: at the highest dose activity change, negative = less growth; 360,000 compounds, 0.21% hits; AID 651644; active = well fitted falling curve with a large enough effect; inconclusive = small, poorly fitted or top-dose-only effect; inactive = no such curve, though single readings can be large or run the other way;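 further: on the % scale 0 is the no-effect control and ±100 the full control effect; nearly all actives have a fitted effect of over 50% in size; the assay follows cell death caused by Vpr and the record does not say whether a fall means rescue or toxicity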
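Fission yeast RE007 carrying one integrated HIV-1 vpr copy, seeded at OD 0.01 in PMG+AL medium with 23 nL pinned compound. Grown 24 h at 30 degrees; viability read by BacTiter-Glo luminescence after 5 min.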
StopGo reporter: FMDV 2A StopGo reporter, luciferase signal. 410,000 compounds, 1.2% hits. Potency, µM (highest dose often 57.9 µM), inactives show at the highest dose signal change, negative = less light. human cells with a luciferase reporter of 2A StopGo recoding; control for the full effect not named in the record; active = well fitted falling curve with a large enough effect; inconclusive = small, poorly fitted or top-dose-only effect; inactive = no such curve, though single readings can be large or run the other way; tested in HEK293T cells; further: on the % scale 0 is the no-effect control and ±100 the full control effect; nearly all actives have a fitted effect of over 45% in size; luciferase light after 4 h
Lassa entry inh: inhibitors of Lassa virus binding or cell entry | Lassa virus pseudotype entry inhibition, cell reporter; control for the full effect not named in the record | Potency, µM (series often up to 37.9 µM), for the others: at the top dose activity change, negative = inhibition, usual class: inhibitors | 300,000 compounds, 1.2% hits; active means well fitted inhibition curve with a large enough effect; inconclusive means small, poorly fitted or top-dose-only effect, or effect the other way; inactive means flat fitted curve, though single readings scatter; tested in HEK293 cells; further: on the % scale 0 is the no-effect control and ±100 the full control effect; nearly all actives have a fitted effect of over 50% in size; luciferase read-out
SARS PLP yeast: blocks SARS-CoV papain-like protease in a yeast assay; 330,000 compounds, 0.19% hits; S. cerevisiae expressing SARS-CoV PLpro, growth rescue; control for the full effect not named in the record; AID 485353; Potency, µM (doses to about 32.9 µM), inactives show top-dose activity, positive = growth rescue; active means well fitted rising curve with a large enough effect; inconclusive means small, poorly fitted or top-dose-only effect; inactive means no such curve, though single readings can be large or run the other way; further: 0% is about no effect; nearly all actives have a fitted effect of over 55% in size; growth read by luminescence after 48 h
Cruzain inh Det: inhibitors of Trypanosoma cruzi cruzain with detergent. P25779. purified cruzain, Z-FR-AMC fluorescence, 0.01% Triton. Potency, µM, inactives show max response, negative = inhibition, actives largely listed as inhibitors. 200,000 compounds, 0.43% hits. AID 1478;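 further: plate controls were neutral wells for no effect and buffer without enzyme for full effect; nearly all actives have a fitted effect of over 40% in size; top concentration of the series not given in the record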
Target sequence (P25779 123-467 limits assumed): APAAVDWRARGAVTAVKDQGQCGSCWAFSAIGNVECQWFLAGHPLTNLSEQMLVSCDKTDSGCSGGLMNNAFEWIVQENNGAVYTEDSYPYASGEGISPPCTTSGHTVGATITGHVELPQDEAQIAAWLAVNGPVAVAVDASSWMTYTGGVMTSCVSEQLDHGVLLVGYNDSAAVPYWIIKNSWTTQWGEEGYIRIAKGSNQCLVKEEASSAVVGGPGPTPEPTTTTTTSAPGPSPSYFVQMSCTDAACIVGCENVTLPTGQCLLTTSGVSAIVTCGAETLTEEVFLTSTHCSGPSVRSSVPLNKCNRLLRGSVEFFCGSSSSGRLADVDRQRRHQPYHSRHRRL
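Sodium acetate buffer (100 mM, pH 5.5) containing 5 mM DTT and 0.01% Triton X-100 hosted 1.5 nM cruzain and test compound for 15 min at room temperature. Cleavage of 2 uM Z-FR-AMC was then tracked by fluorescence.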
Cruzain inh noDet: inhibitors of Trypanosoma cruzi cruzain without detergent; P25779; purified cruzain, Z-FR-AMC fluorescence, no detergent; Potency, µM, inactives show max response, negative = inhibition, usual class: inhibitors; 200,000 compounds, 2.3% hits;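 further: plate controls were enzyme without inhibitor for no effect and buffer without enzyme for full effect; nearly all actives have a fitted effect of over 40% in size; top concentration of the series not given in the record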
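Purified cruzain at 1.5 nM, pre-incubated 15 min with compound at room temperature in 100 mM sodium acetate pH 5.5, 5 mM DTT, 0.00005% Triton X-100. Reaction started with 2 uM Z-FR-AMC; AMC fluorescence increase over 60 s gives rate.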
NS1 function inh: inhibitors of influenza NS1 protein function | S. cerevisiae slowed by influenza A NS1, growth recovery by OD600 | Potency, µM (top dose mostly 46.1 µM), for inactives: top-dose activity, positive = more growth | 270,000 compounds, 0.4% hits | AID 2326; active means well fitted rising curve with a large enough effect; inconclusive means small, poorly fitted or top-dose-only effect; inactive means no such curve, though single readings can be large or run the other way; further: nearly all actives have a fitted effect of over 50% in size
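Compounds were scored for reversing the slow growth caused by influenza A NS1 in S. cerevisiae, measured by optical density at 600 nm. Assay medium contained 2% galactose at pH 6.0; NS1-free yeast of the same strain were the positive control.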
Marburg entry inh: Marburg virus entry inhibition; AID 540276; 300,000 compounds, 1.8% hits; Potency, µM (doses to about 37.8 µM), inactives show top-dose activity change, negative = inhibition, actives largely listed as inhibitors; Marburg virus pseudotyped entry inhibition, cell reporter; control for the full effect not named in the record; about a third of the inactives were read at about 46 µM; active = well fitted inhibition curve with a large enough effect; inconclusive = small, poorly fitted or top-dose-only effect, or effect the other way; inactive = flat fitted curve, though single readings scatter; tested in HEK293 cells; about a fifth of its hits are not listed in these tables; further: on the % scale 0 is the no-effect control and ±100 the full control effect; luciferase read-out
Numbers without * were called inactive; ? = inconclusive; . = no result given; & = joins results of further samples; [ ] = remark or other dose. Unless noted, the call rests on the fitted dose curve; in most records, active means well fitted curve in the direction sought with a large enough effect; inconclusive means small, poorly fitted or top-dose-only effect, or another doubt; inactive means no such curve, though single readings can be large; an effect the other way counts as inactive or inconclusive. Potency means the concentration at half of the fitted maximal effect.

SMILES	RE007 growth inh	StopGo reporter	Lassa entry inh	SARS PLP yeast	Cruzain inh Det	Cruzain inh noDet	NS1 function inh	Marburg entry inh
Cc1ccc(Cl)cc1NC(=O)COC(=O)CC1CC2CCC1C2 (stereo not drawn)	-16.0%	-6.1%	12.2%	-7.1%	5.5%	-1.3%	-4.7%	-8.7%
COc1ccccc1OCCOc1ccccc1/C=N/n1cnnc1	3.8%	27.0%	-0.3%	-7.5%	1.3%	-11.2%	-14.0%	-1.9%
O=C(NCCCN1CCOCC1)c1ccc2c(c1)N(Cc1ccccc1)CCS2	-1.5%	-23.1%	18.0%[46.1 µM]	1.4%	.	.	5.1%	?
CCn1c2ccccc2c2cc(NC(=O)C(C)C)ccc21	-10.8%	.	-24.1%	-1.3%	1.7%	-1.7%	3.4%	-25.4%
O=C(NCC1CCCO1)C1CCN(S(=O)(=O)c2ccc(Br)cc2)CC1 (stereo not drawn)	10.5%	-14.0%	.	-0.2%	.	.	-9.1%	.
COc1ccccc1-n1c(CNC(=O)c2ccco2)nnc1SCC(=O)Nc1ccc(F)cc1	1.9%	19.7%	1.2%	7.3%	3.9%	8.2%	-3.1%	2.0%
CC(C)(C)NS(=O)(=O)c1ccc(CCC(=O)Nc2cc(Cl)ccc2Oc2ccccc2)cc1	-0.1%	?	?	1.4%	-3.8%	-1.3%	27.4%	8.91µM*
COc1cccc(/C=C/C(=O)OCC(=O)c2c[nH]c3ccccc23)c1OC	-1.2%	25.1µM*	11.7%	6.5%	-5.3%	?	0.1%	2.3%
CCOc1ccc(NC(=O)c2cc(SC)ccc2Cl)cc1	13.3%	-18.1%	0.2%	3.0%	-5.8%	-4.3%	8.2%	?
Clc1ccccc1-c1nc(-c2ccccc2)n[nH]1	?	27.4%	?	-19.2%	-1.6%	-2.0%	-55.5%	7.5%
CCSc1nnc2n(-c3cccc(C)c3)c(=O)c3c4c(sc3n12)CCCC4	.	?	11.6%[46.1 µM]	.	-0.8%	-6.1%	.	9.3%[46.1 µM]
O=S(=O)(Nc1ccncc1Cl)c1ccc2ccccc2c1	2.1%	50.8%[activator]	0.6%	2.2%	.	.	2.6%	1.9%
C=CCN(c1ccc(F)cc1)S(=O)(=O)c1cc(C(=O)OCC(=O)N(C)C2CCS(=O)(=O)C2)ccc1Cl (stereo not drawn)	-2.9%	0.0%	.	-0.5%	.	.	-4.2%	.
CN(c1ccccc1)S(=O)(=O)c1nnc(NC(=O)c2cccs2)s1	.	20.2%	5.2%[46.1 µM]	.	-1.3%	-7.3%	.	.
N#C/C(C(=O)N1CCCCC1)=C1\Nc2ccccc2S1	?	34.1%[activator]	7.1%	-16.5%	-6.1%	-27.7%	-1.9%	?
COc1ccc(NC(=O)c2ccc(NS(=O)(=O)c3cccc4cccnc34)cc2)cc1	5.5%	16.7%	?	-3.1%	.	.	4.4%	?
Cc1ccc(C)c(SCC(=O)Nc2cccc(S(=O)(=O)NC3=NCCCCC3)c2)c1	25.4%	-9.5%	-7.6%	3.0%	-4.9%	-1.8%	-13.7%	?
COc1ccc(/C=C/C(=O)NC(=S)N2CCN(c3ccccc3OC)CC2)cc1	-18.3%	41.3%[activator]	26.3%[46.1 µM]	0.3%	.	.	11.2%	?
Cc1cccc(N2CCN(C(=O)Cn3nc(Cc4ccncc4)c4ccccc4c3=O)CC2)c1C	0.2%	-31.2%	.	.	.	.	-68.4%	0.5%
O=C(COc1ccccc1[N+](=O)[O-])OCCCOC(=O)COc1ccccc1[N+](=O)[O-]	-8.2%	0.0%	22.0%	?	.	.	-11.3%	-3.9%
CC(=O)c1ccn(S(=O)(=O)c2ccccc2)c1	21.9%	-15.3%	16.6%	5.7%	-1.6%	-7.9%	16.9%	?
Cc1nnc(Oc2ccccc2)c2ccccc12	-19.3%	18.3%	-15.7%	8.0%	-2.3%	-5.9%	-18.2%	21.2%
Cc1cc(S(=O)(=O)NCc2ccccc2)ccc1OCC(=O)N1CCCC1	0.8%	60.2%[activator]	1.3%	9.4%	.	.	-4.9%	3.5%
c1ccc(Cn2nnnc2C(c2ccncc2)N2CCOCC2)cc1 (stereo not drawn)	9.9%	.	7.5%	6.4%	3.7%	2.3%	-2.9%	14.8%
COC(=O)C1CN(C(=O)C(C)Oc2cccc(C)c2C)c2ccccc2O1 (stereo not drawn)	12.5%	-12.8%	.	8.6%	.	.	-3.2%	.
Cc1ccc(S(=O)(=O)N(CC(O)Cn2c3ccccc3c3ccccc32)c2cccc(C(=O)N(C)C)c2)cc1 (stereo not drawn)	.	-22.4%	-22.1%[46.1 µM]	.	-3.1%	?	.	-26.2%[46.1 µM]
CCCc1cc(=O)oc2cc(C)cc(OC(C)C(=O)NCCN3CCOCC3)c12 (stereo not drawn)	-9.0%	35.6%[activator]	25.9%[46.1 µM]	1.4%	.	.	-9.2%	16.9%[46.1 µM]
CCOc1ccc(NC(=S)NC(=O)c2cccnc2)c([N+](=O)[O-])c1	1.6%	-13.8%	-5.4%	9.7%	.	.	2.5%	6.9%
O=C(NCc1cccc(Cl)c1)N1CCN(S(=O)(=O)c2ccccc2F)CC1	0.9%	-6.1%	5.2%	-0.3%	.	.	-21.5%	1.7%
CC1CC(C)CN(C(=O)COC(=O)CNC(=O)C23CC4CC(CC(C4)C2)C3)C1 (stereo not drawn)	3.7%	10.6%	2.9%[46.1 µM]	-2.1%	.	.	.	-2.8%
CC1CCN(c2ccc(NC(=S)NC(=O)c3ccc(-c4cccc([N+](=O)[O-])c4)o3)cc2)CC1	0.9%	-10.5%	14.7%	-6.0%	-0.3%	?	-2.6%	10.1%
O=C(CN1CCN(C/C=C/c2ccccc2)CC1)NCc1ccccc1	0.0%	11.4%	.	0.5%	.	.	-3.7%	.
O=C(Nc1nnc(-c2ccc3c(c2)CCCC3)o1)C1CCCCC1	2.4%	10.5%	.	15.2%	1.1%	?	-5.5%	.
Cc1cc2nc(-c3ccc(NC(=O)c4cc5ccccc5o4)cc3)oc2cc1C	.	56.9%[activator]	?	.	-0.8%	-0.8%	.	.
O=C(Cc1ccccc1)N(c1ccc(F)cc1)C1C=CS(=O)(=O)C1 (stereo not drawn)	-1.2%	.	22.5%	8.1%	3.3%	0.1%	-2.7%	3.8%
CC(C)(C)CN1CCNC(=O)C1CC(=O)N1CCOc2ccccc2C1 (stereo not drawn)	1.6%	-8.9%	7.9%[46.1 µM]	-0.2%	.	.	9.3%	-17.6%[46.1 µM]

Some entries already given, limited to SARS PLP yeast, Lassa entry inh and Cruzain inh Det.
structure | SARS PLP yeast | Lassa entry inh | Cruzain inh Det
CC1CCN(c2ccc(NC(=S)NC(=O)c3ccc(-c4cccc([N+](=O)[O-])c4)o3)cc2)CC1 | -6.0% | 14.7% | -0.3%
O=C(CN1CCN(C/C=C/c2ccccc2)CC1)NCc1ccccc1 | 0.5% | . | .

2 records picked at random from the list so far:
SMILES	RE007 growth inh	StopGo reporter	Lassa entry inh	SARS PLP yeast	Cruzain inh Det	Cruzain inh noDet	NS1 function inh	Marburg entry inh
CC(C)(C)CN1CCNC(=O)C1CC(=O)N1CCOc2ccccc2C1 (stereo not drawn)	1.6%	-8.9%	7.9%[46.1 µM]	-0.2%	.	.	9.3%	-17.6%[46.1 µM]
Cc1cc2nc(-c3ccc(NC(=O)c4cc5ccccc5o4)cc3)oc2cc1C	.	56.9%[activator]	?	.	-0.8%	-0.8%	.	.

Continuation:
SMILES	RE007 growth inh	StopGo reporter	Lassa entry inh	SARS PLP yeast	Cruzain inh Det	Cruzain inh noDet	NS1 function inh	Marburg entry inh
O=Cc1cn(CCCOc2ccccc2)c2ccccc12	-26.1%	-7.3%	11.0%	-1.2%	-6.7%	-10.8%	17.5%	?
CN(C)C(CNC(=O)CCS(=O)(=O)c1ccccc1)c1ccccc1 (stereo not drawn)	-1.9%	12.8%	20.5%	1.9%	.	.	-0.1%	-4.2%
O=C(O)CC(NC(=O)OCc1ccccc1)c1ccccc1 (stereo not drawn)	-7.6%	-5.6%	-3.4%	-2.2%	1.4%	-2.1%	6.6%	23.6%
CCCCCC(=O)Nc1nc(C)c(-c2csc(Nc3ccc(Cl)cc3)n2)s1	0.5%	-7.9%	.	1.5%	-5.8%	12.6µM*	27.8%	.
O=[N+]([O-])c1cc(F)c(N2CCCCC2)cc1N1CCOCC1	-18.3%	-5.3%	-26.0%[14.3 µM]	15.0%	-1.0%	-5.8%	-1.2%	-9.0%
CC(C)CCNC(=O)C(C)N(C(=O)c1snc(C(N)=O)c1N)c1cnc2ccccc2c1 (stereo not drawn)	2.6%	15.9%	?	-1.1%	.	.	.	-28.6%[46.1 µM]
O=[N+]([O-])c1ccc([N+](=O)[O-])c(Nc2ccc(N3CCOCC3)cc2)c1	?	-8.8%	.	-0.3%	.	.	1.1%	.
O=c1cc2c(nn1Cc1ccccc1Cl)-c1ccccc1CC2	4.2%	15.7%	-14.0%	-15.9%	-14.3%	-13.2%	8.4%	-8.2%
CCCCNC(=S)Nc1ccc2nc3n(c(=O)c2c1)CCCCC3	-8.3%	3.3%	-5.7%	10.6%	-5.5%	2.8%	-8.8%	23.7%
CC1CCCCC1NC(=O)COc1cccnc1[N+](=O)[O-] (stereo not drawn)	-10.0%	-17.6%	-13.0%	-1.3%	.	.	.	?
COc1ccc(N2C(=O)CCC(C(C)=O)=C2C)cc1	1.4%	-9.2%	8.6%	0.5%	2.0%	-24.0%	10.8%	-0.2%
CCOc1ccc(NC(=O)CCS(=O)(=O)c2ccc(Br)cc2)cc1	-2.5%	-5.4%&3.8%	3.6%[46.1 µM]	-1.0%	-11.9%	-14.7%	-0.7%	.
CCC(C(=O)NC(C)c1ccccc1)C(=O)NC(C)c1ccccc1 (stereo not drawn)	-17.8%	4.9%	6.1%	2.0%	.	.	-2.4%	.
CC(C)CNC(=O)c1cccc(NC(=O)Cc2ccc(Br)cc2)c1	10.9%	-11.2%	?	0.3%	-4.2%	-20.5%	13.2%	-6.3%
